NOMO-1 viab: STK33 inhibitor candidate reducing NOMO-1 cell viability | actives 7.5% (n = 37,000) | AID 2330 | NOMO-1 AML viability, CellTiter-Glo luminescence, 72 h | inhibition, % (concentration not given with the values);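 active means most replicates above 80%; inconclusive means exactly half above 80%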;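 further: wells of about 30 µL received 25 nL stock; 0% = median of vehicle wells and 100% = reference inhibitor level; the first replicate is given; inactives centre near 10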
An asterisk follows results filed as active; ? = inconclusive. Some of the compounds tested (hit frequency here may not be typical).

SMILES	NOMO-1 viab
C[C@H](CO)N1C[C@H](C)[C@@H](CN(C)C(=O)NC2CCCCC2)Oc2ccc(N(C)C)cc2C1=O	5
CCCCCCCCC/C=C/CCCCC(=O)C1C(=O)CCC(O)C1=O (stereo unspecified)	109*
C[C@@H]1CN([C@H](C)CO)C(=O)Cc2cc(NC(=O)CCN3CCOCC3)ccc2O[C@@H]1CN(C)C(=O)Nc1ccc2c(c1)OCO2	19
COc1ccc(OC2OC(COC3OCC(O)C(O)C3O)C(O)C(O)C2O)cc1OC (stereo unspecified)	4
C[C@H](CO)N1C[C@H](C)[C@H](CN(C)Cc2ccc(C(F)(F)F)cc2)Oc2ccc(NS(=O)(=O)c3cn(C)cn3)cc2CC1=O	24
CC1CCc2sc(NC(=O)C(Cc3ccccc3)Cc3ccccc3)c(C#N)c2C1 (stereo unspecified)	39
C=C(C)CC1C(=O)N(S(=O)(=O)c2ccccc2Cl)N=C1C (stereo unspecified)	39
Cc1cccc(NC(=O)CN(c2ccc3c(c2)OCCO3)S(C)(=O)=O)c1	-10
COc1ccc(S(=O)(=O)Nc2ccc3c(c2)C(=O)N([C@H](C)CO)C[C@H](C)[C@H](CN(C)S(=O)(=O)c2ccc(C)cc2)O3)cc1	1
O=C1CC(c2ccccc2)Oc2cc(O)cc(O)c21 (stereo unspecified)	10
C[C@@H]1CCCCO[C@H](CN(C)C(=O)NC2CCCCC2)[C@@H](C)CN([C@H](C)CO)C(=O)c2cc(NC(=O)NC3CCCCC3)ccc2O1	38
C[C@@H]1CCCCO[C@@H](CN(C)Cc2ccc(Cl)c(Cl)c2)[C@@H](C)CN([C@H](C)CO)C(=O)c2cc(NC(=O)CCC(F)(F)F)ccc2O1	75
COc1ccccc1NC(=O)C1CCCN(S(=O)(=O)c2cc(Cl)ccc2Cl)C1 (stereo unspecified)	11
C[C@H]1CN([C@@H](C)CO)C(=O)Cc2cc(NC(=O)Nc3ccc(C(F)(F)F)cc3)ccc2O[C@H]1CN(C)C(=O)Nc1ccc(F)cc1	24
Cc1noc(C)c1NC(=O)Nc1cccc2c1O[C@H](CN(C)Cc1ccc(C(=O)O)cc1)[C@H](C)CN([C@H](C)CO)C2=O	29
Cn1nnnc1SCCNC/C=C/c1ccccc1	-9
COC(=O)c1ccccc1NC(=O)C1CCN(S(=O)(=O)c2cc(OC)ccc2OC)CC1	-4
Cc1noc(C)c1NC(=O)N(C)C[C@H]1Oc2c(NC(=O)Nc3ccc(C(F)(F)F)cc3)cccc2C(=O)N([C@H](C)CO)C[C@H]1C	31
Cc1ccc(S(=O)(=O)Nc2cccc3c2O[C@@H](CN(C)Cc2ccc(Oc4ccccc4)cc2)[C@H](C)CN([C@@H](C)CO)C3=O)cc1	42
C[C@H](CO)N1C[C@H](C)[C@@H](CN(C)CC2CCCCC2)Oc2ccc(NC(=O)CCCCCC(=O)Nc3ccccc3N)cc2C1=O	26
C[C@@H]1CN([C@@H](C)CO)C(=O)c2cccc(NC(=O)Nc3ccc4c(c3)OCO4)c2O[C@@H]1CN(C)Cc1ccccc1	19
Cc1ccc(CN2C(=O)N(c3ccccc3)C(=O)C2CC(=O)Nc2ccccc2)cc1 (stereo unspecified)	-4
NS(=O)(=O)c1ccc(NC(=O)CSc2nc3ccccc3[nH]2)cc1	-3
CN1CCN(C(=O)CN(c2cc(C(F)(F)F)ccc2Cl)S(=O)(=O)c2ccccc2)CC1	9
Cc1ccc(S(=O)(=O)N(C)C[C@@H]2Oc3c(NC(=O)c4ccncc4)cccc3C(=O)N([C@H](C)CO)C[C@@H]2C)cc1	2
O=C(CNS(=O)(=O)c1ccccc1)Nc1ccc(I)cc1	24
CCN1CCN(C(=S)c2cc(I)c(OCC(=O)Nc3cccc(C)c3)c(OC)c2)CC1	-3
C[C@H](CO)N1C[C@H](C)[C@H](CN(C)Cc2ccc3c(c2)OCO3)Oc2c(NC(=O)NC3CCCCC3)cccc2C1=O	42
C[C@H](CO)N1C[C@H](C)[C@@H](CN(C)S(=O)(=O)c2cccs2)Oc2c(NC(=O)c3ccncc3)cccc2C1=O	13
C[C@H]1CN([C@@H](C)CO)C(=O)c2cccc(N(C)C)c2O[C@H]1CN(C)Cc1ccc(C(=O)O)cc1	8
C[C@H](CO)N1C[C@H](C)[C@H](CN(C)S(C)(=O)=O)Oc2ccc(NC(=O)CCCCCC(=O)Nc3ccccc3N)cc2CC1=O	0
Cc1ccc(S(=O)(=O)N(C)C[C@@H]2Oc3ccc(NS(=O)(=O)c4cccs4)cc3CC(=O)N([C@H](C)CO)C[C@@H]2C)cc1	10
COc1ccc(C(=O)c2oc3ccccc3c2NC(=O)COc2ccc(F)cc2)cc1	19
C[C@H](CO)N1C[C@H](C)[C@H](CN(C)Cc2ccc(C(=O)Nc3ccccc3N)cc2)Oc2c(NC(=O)Nc3ccc(C(F)(F)F)cc3)cccc2C1=O	60
C[C@@H]1CN([C@@H](C)CO)C(=O)c2cc(NC(=O)c3ccncc3)ccc2O[C@H]1CN(C)S(=O)(=O)c1cn(C)cn1	18
C[C@@H]1CN([C@H](C)CO)C(=O)Cc2cc(NC(=O)CCC(F)(F)F)ccc2O[C@H]1CN(C)S(=O)(=O)c1ccccc1	1
Cc1ccc(S(=O)(=O)Nc2cccc3c2O[C@@H](CN(C)S(=O)(=O)c2cccs2)[C@@H](C)CN([C@H](C)CO)C3=O)cc1	1
O=C1CC(c2ccccc2)C(=O)N1c1ccc(F)cc1 (stereo unspecified)	22
O=S(=O)(CCSc1ccc(C(F)(F)F)cn1)c1ccc(OC(F)(F)F)cc1	17
CC(C)(C)c1ccc(OCC(=O)NCc2cccnc2)c(Br)c1	23

A different layout for eleven compounds above:
Molecule | NOMO-1 viab
C[C@@H]1CN([C@@H](C)CO)C(=O)c2cccc(NC(=O)Nc3ccc4c(c3)OCO4)c2O[C@@H]1CN(C)Cc1ccccc1 | 19
Cc1ccc(CN2C(=O)N(c3ccccc3)C(=O)C2CC(=O)Nc2ccccc2)cc1 (stereo unspecified) | -4
NS(=O)(=O)c1ccc(NC(=O)CSc2nc3ccccc3[nH]2)cc1 | -3
CN1CCN(C(=O)CN(c2cc(C(F)(F)F)ccc2Cl)S(=O)(=O)c2ccccc2)CC1 | 9
Cc1ccc(S(=O)(=O)N(C)C[C@@H]2Oc3c(NC(=O)c4ccncc4)cccc3C(=O)N([C@H](C)CO)C[C@@H]2C)cc1 | 2
O=C(CNS(=O)(=O)c1ccccc1)Nc1ccc(I)cc1 | 24
CCN1CCN(C(=S)c2cc(I)c(OCC(=O)Nc3cccc(C)c3)c(OC)c2)CC1 | -3
C[C@H](CO)N1C[C@H](C)[C@H](CN(C)Cc2ccc3c(c2)OCO3)Oc2c(NC(=O)NC3CCCCC3)cccc2C1=O | 42
C[C@H](CO)N1C[C@H](C)[C@@H](CN(C)S(=O)(=O)c2cccs2)Oc2c(NC(=O)c3ccncc3)cccc2C1=O | 13
C[C@H]1CN([C@@H](C)CO)C(=O)c2cccc(N(C)C)c2O[C@H]1CN(C)Cc1ccc(C(=O)O)cc1 | 8
C[C@H](CO)N1C[C@H](C)[C@H](CN(C)S(C)(=O)=O)Oc2ccc(NC(=O)CCCCCC(=O)Nc3ccccc3N)cc2CC1=O | 0

Fetched one by one from the list above (2):
SMILES	NOMO-1 viab
O=C(CNS(=O)(=O)c1ccccc1)Nc1ccc(I)cc1	24
C[C@H]1CN([C@@H](C)CO)C(=O)c2cccc(N(C)C)c2O[C@H]1CN(C)Cc1ccc(C(=O)O)cc1	8

Next compounds.
SMILES	NOMO-1 viab
Cc1ccc(S(=O)(=O)Nc2ccc3c(c2)CC(=O)N([C@@H](C)CO)C[C@H](C)[C@@H](CN(C)CC2CC2)O3)cc1	12
C[C@@H]1CN([C@@H](C)CO)C(=O)c2cccc(NC(=O)Nc3ccc(F)cc3)c2O[C@@H]1CN(C)S(=O)(=O)c1cn(C)cn1	2
C[C@H]1CN([C@@H](C)CO)C(=O)Cc2cc(NC(=O)Nc3ccc(C(F)(F)F)cc3)ccc2O[C@H]1CN(C)Cc1ccc(C(=O)Nc2ccccc2N)cc1	127*
C[C@@H]1CCCCO[C@@H](CN(C)CC2CC2)[C@@H](C)CN([C@H](C)CO)C(=O)c2cc(NC(=O)Nc3ccc(F)cc3)ccc2O1	26
CC(C)NC(=O)Nc1cccc2c1O[C@@H](CN(C)C(=O)Nc1ccc(F)cc1)[C@H](C)CN([C@H](C)CO)C2=O	6
C[C@@H]1CN([C@H](C)CO)C(=O)c2cc(NC(=O)Cc3ccccc3)ccc2O[C@H]1CN(C)S(C)(=O)=O	24
COc1ccc(C)cc1NC(=O)CSc1n[nH]c(-c2ccc(Cl)cc2)n1	-10
CC1CCN(S(=O)(=O)c2ccc(NC(=O)CN3CCOCC3)cc2)CC1	6
CC(C)NC(=O)Nc1cccc2c1O[C@H](CN(C)C(=O)Nc1ccc(F)cc1)[C@@H](C)CN([C@H](C)CO)C2=O	9
C[C@H](CO)N1C[C@H](C)[C@H](CN(C)Cc2ccc(Cl)c(Cl)c2)Oc2ccc(NS(C)(=O)=O)cc2CC1=O	4
C[C@@H]1CN([C@H](C)CO)C(=O)c2cc(NC(=O)Nc3ccccc3)ccc2O[C@@H]1CN(C)Cc1ccc2c(c1)OCO2	13
C[C@@H]1CN([C@H](C)CO)C(=O)Cc2cc(NS(=O)(=O)c3ccccc3)ccc2O[C@@H]1CN(C)C(=O)Nc1ccccc1	7
C[C@@H]1CN([C@@H](C)CO)C(=O)c2cc(NC(=O)Nc3ccc(C(F)(F)F)cc3)ccc2O[C@@H]1CN(C)C(=O)Nc1ccc(F)cc1	113*
COc1cc(COc2cc(N)c(Cl)cc2C(=O)CCC2CCN(CCNS(C)(=O)=O)CC2)cc(OC)c1	143*
CNC[C@H]1Oc2c(NC(=O)c3ccc(-c4nccs4)cc3)cccc2C(=O)N([C@H](C)CO)C[C@@H]1C	-19
CN(CC(=O)Nc1ccc(Oc2ccccc2)cc1)S(=O)(=O)c1ccccc1	19
COc1ccc(CCNC(=S)Nc2ccncc2)cc1OC	113*
O=C(CC1Nc2cccc3cccc(c23)NC1=O)Nc1ccc([N+](=O)[O-])cc1 (stereo unspecified)	124*
C[C@H](CO)N1C[C@H](C)[C@H](CN(C)C(=O)Nc2ccc3c(c2)OCO3)Oc2ccc(NS(=O)(=O)c3ccc(Cl)cc3)cc2C1=O	5
COC(=O)c1ccc(C)c(NC(=O)CN(c2ccc(Cl)c(Cl)c2)S(C)(=O)=O)c1	108*
COc1ccc(NC(=O)CSc2nnc3c4c5c(sc4nc(-c4ccccc4)n23)CCC5)cc1	?
COc1ccc(S(=O)(=O)N(C)C[C@H]2Oc3c(NS(=O)(=O)c4cccs4)cccc3C(=O)N([C@@H](C)CO)C[C@@H]2C)cc1	33
Cc1nn(CC(=O)Nc2ccc3c(c2)nc(CN2CCCC2)n3C)c(=O)c2ccccc12	3
C[C@@H]1CCCCO[C@H](CN(C)Cc2ccc3c(c2)OCO3)[C@@H](C)CN([C@H](C)CO)C(=O)c2cc(NC(=O)NC3CCCCC3)ccc2O1	30
COc1ccc(CC(=O)Nc2cccc(-c3nnc(-c4ccc(C)cc4)o3)c2)cc1OC	122*
C[C@H]1CN([C@@H](C)CO)C(=O)Cc2cc(NC(=O)NC3CCCCC3)ccc2O[C@H]1CN(C)S(C)(=O)=O	14
COCCNC(=S)N1CCN(Cc2ccco2)CC1	0
C[C@@H]1O[C@@H](Oc2ccc(-c3coc4cc(O[C@@H]5O[C@@H](C)[C@H](O)[C@@H](O)[C@H]5O)ccc4c3=O)cc2)[C@H](O)[C@H](O)[C@H]1O	24
Cc1ccc2oc(-c3cccc(NC(=O)COc4ccc(Cl)cc4)c3C)nc2c1	41
CCc1cccc(C)c1NC(=O)CSc1nc2sc3c(c2c(=O)n1C)CCC(C)C3 (stereo unspecified)	95*
O=C1CCC(=O)N1CNc1ccccn1	25
Cc1noc(C)c1NC(=O)N(C)C[C@H]1Oc2ccc(NS(C)(=O)=O)cc2C(=O)N([C@H](C)CO)C[C@@H]1C	-11
Cc1ccc(C(C)C)c(OCC(=O)Nc2ccccc2N2CCN(C)CC2)c1	53
Cc1noc(C)c1NC(=O)Nc1ccc2c(c1)C(=O)N([C@@H](C)CO)C[C@H](C)[C@@H](CN(C)C(=O)Nc1ccc(C(F)(F)F)cc1)O2	9
C[C@H](CO)N1C[C@H](C)[C@H](CN(C)C(=O)Nc2ccccc2)Oc2c(NS(=O)(=O)c3ccccc3)cccc2C1=O	32
Cc1ccc(C)c(NC(=O)CNS(=O)(=O)c2ccccc2)c1	3
CC(C)(O)/C=C/C(=O)[C@](C)(O)[C@H]1[C@H](O)C[C@@]2(C)[C@@H]3CC=C4[C@@H](C=C(O[C@@H]5O[C@H](CO)[C@@H](O)[C@H](O)[C@H]5O)C(=O)C4(C)C)[C@]3(C)C(=O)C[C@]12C	16
COc1ccc(NC(=O)Nc2cccc3c2O[C@@H](CN(C)S(=O)(=O)c2ccc(F)cc2)[C@@H](C)CN([C@@H](C)CO)C3=O)cc1	0
C[C@@H]1CN([C@H](C)CO)C(=O)Cc2cc(NC(=O)c3ccncc3)ccc2O[C@H]1CN(C)C(=O)Nc1ccc(C(F)(F)F)cc1	8
C[C@H]1CN([C@@H](C)CO)C(=O)c2cccc(NC(=O)c3ccc(-c4nccs4)cc3)c2O[C@H]1CN(C)Cc1ccc(Oc2ccccc2)cc1	64
COc1ccccc1NC(=O)CSc1nnnn1-c1c(C)cccc1C	8
O=C(O)CCC(=O)N1N=C(c2c(-c3ccccc3)c3cc(Cl)ccc3[nH]c2=O)CC1c1ccccc1 (stereo unspecified)	16
C[C@@H]1CN([C@@H](C)CO)C(=O)Cc2cc(NC(=O)CCN3CCOCC3)ccc2O[C@@H]1CN(C)Cc1ccc(C(F)(F)F)cc1	-5
CC(Sc1nc(-c2ccccc2)c(C#N)c(=O)[nH]1)C(=O)Nc1ccc(Cl)cc1 (stereo unspecified)	46
C[C@@H]1CN([C@@H](C)CO)C(=O)Cc2cc(NC(=O)Nc3ccc(F)cc3)ccc2O[C@@H]1CN(C)C(=O)NC1CCCCC1	0

Source: PubChem BioAssay
